VDR inh – Inhibitors of the vitamin D receptor (VDR): qHTS | Vitamin D3 receptor (Homo sapiens), P11473 | VDR-SRC2-3 peptide fluorescence polarization, 2 h | Potency, µM, for the others: max response, negative = inhibition, usual class: inhibitors | 400,000 compounds, 0.93% hits; active means well fitted inhibition curve with a large enough effect; inconclusive means small, poorly fitted or top-dose-only effect, or another doubt; inactive means no such curve, though single readings can be large or run the other way; further: series mostly up to about 120 µM
Target sequence (P11473 whole entry, looked up): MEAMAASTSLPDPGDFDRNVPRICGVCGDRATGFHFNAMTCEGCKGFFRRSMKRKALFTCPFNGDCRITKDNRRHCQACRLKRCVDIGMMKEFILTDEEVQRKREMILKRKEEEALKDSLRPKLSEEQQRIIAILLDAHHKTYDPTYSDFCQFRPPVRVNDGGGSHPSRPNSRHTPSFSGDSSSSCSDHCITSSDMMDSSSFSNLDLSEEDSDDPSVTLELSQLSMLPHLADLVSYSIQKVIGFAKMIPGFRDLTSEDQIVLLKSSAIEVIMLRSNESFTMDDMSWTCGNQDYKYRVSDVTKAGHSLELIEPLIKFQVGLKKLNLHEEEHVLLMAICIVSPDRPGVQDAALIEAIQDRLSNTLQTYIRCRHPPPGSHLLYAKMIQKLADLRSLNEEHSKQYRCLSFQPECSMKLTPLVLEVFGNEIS
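VDR–SRC2-3 interaction, FP format. Cmpds 23 nl via pintool, brief spin, 2 h ambient incubation.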
Active calls of the source: *; ? = inconclusive; & = joins results of further samples. On the % scale 0 is the no-effect control and ±100 the full control effect; potency means the concentration at half of the fitted maximal effect.

> CCC(C)[C@H](NC(=O)NC1CC1)C(=O)O (stereo partly specified)
  VDR inh: 13%

> CC(C)(C)C1CCC(OC(=O)CCC(=O)Nc2ccccc2)CC1 (stereo unspecified)
  VDR inh: -9%

> Cc1nc(-c2ccccc2O)n(S(=O)(=O)N(C)C)n1
  VDR inh: -23%

> COc1ccccc1C(CNC(=O)c1ccc(NS(=O)(=O)c2ccc(C(C)=O)cc2)cc1)N1CCCC1 (stereo unspecified)
  VDR inh: 7%

> CC1=C(C(=O)NCc2ccccc2C)C2(CCCCCC2)OC1=O
  VDR inh: -2%

> COc1ccc(CCN2CC(C(=O)NCCc3cnn(C)c3)CCC2=O)cc1 (stereo unspecified)
  VDR inh: ?

> COc1ccccc1OC(C)C(=O)Nc1cccc(-c2nc3ccccc3s2)c1 (stereo unspecified)
  VDR inh: 10%

> O=C(C[C@@H]1C/C=C/CC[C@@H](Cc2ccc(F)cc2)C(=O)O[C@H](c2ccccc2)CNC1=O)NCCO
  VDR inh: -7%

> Cc1ccccc1Oc1nnc(-c2cccs2)c2ccccc12
  VDR inh: -16%

> CC1C(=O)OC2C(O)C34C5CC(C(C)(C)C)C36C(OC(=O)C6O)OC4(C(=O)O5)C12O (stereo unspecified)
  VDR inh: -1%

> CCCSC1=N/C(=C\c2ccc3c(c2)OCO3)C(=O)S1
  VDR inh: -14%

> CCOC(=O)CN1C(=O)/C(=C/c2cccc(Br)c2)Oc2ccccc21
  VDR inh: -6%

> O=C(NC1CCCCC1)c1ccc(COc2ccccc2)o1
  VDR inh: 1%

> O=[N+]([O-])c1ccccc1/C=C/C=N/n1c(-c2ccc(Cl)cc2)n[nH]c1=S
  VDR inh: -7%

> COc1ccc2nc(NC(=O)c3ccccc3[N+](=O)[O-])sc2c1
  VDR inh: -4%

> COc1ccc(OCc2nnc3n2N=C(c2ccc(C)cc2)CS3)cc1
  VDR inh: 8%

> COc1ccccc1NC(=S)NC1CCCCCCCCCCC1
  VDR inh: -8%

> Cn1c(=O)cc(OCC(=O)NCCC2=CCCCC2)c2ccccc21
  VDR inh: 7%

> CCOC(=O)c1cc2occc2n1Cc1ccc(F)cc1
  VDR inh: 8%

> Cc1ccc(C(=O)NCC(=O)OCC(=O)NCCc2ccccc2)s1
  VDR inh: -18%

> Cc1cc(C)n2nc(CNS(=O)(=O)c3ccc(Cl)cc3)nc2n1
  VDR inh: 6%

> COc1ccc(-n2c(-c3ccco3)nc3c(cnn3-c3ccccc3C)c2=O)cc1
  VDR inh: 6%&-4%

> Nc1ccc(C(=O)OCC(=O)c2cccc([N+](=O)[O-])c2)cc1
  VDR inh: 3%

> CSc1nnc(-c2cc3c(-c4ccccc4)nn(C)c3s2)n1C
  VDR inh: 6%

> CCCOc1ccc(S(=O)(=O)N2CCOCC2)cc1[N+](=O)[O-]
  VDR inh: 4%

> Clc1cccc(OCc2nc(-c3ccncc3)n[nH]2)c1
  VDR inh: 0%

> COc1ccc(CC(=O)OCC(=O)NCc2ccccc2Cl)cc1
  VDR inh: -4%

> COc1cc(C=O)cc(OC)c1OS(=O)(=O)c1ccc(NC(C)=O)cc1
  VDR inh: 3%

> CC(C)CC(NS(=O)(=O)c1ccc2c(c1)oc(=O)n2C)C(=O)NCc1cccnc1 (stereo unspecified)
  VDR inh: -3%

> CCOC(=O)CSc1nnc(-c2cccnc2)n1C
  VDR inh: -20%

> Cc1ccc(/C=N/n2c(COc3ccccc3)n[nH]c2=S)o1
  VDR inh: 6%

> Cc1cc(-c2ccc(/C=N/n3cnnc3)o2)c(C)c([N+](=O)[O-])c1
  VDR inh: -6%

> Cc1cccc(N2CCN(C(=O)c3ccc4nc(N5CCCCC5)sc4c3)CC2)c1C
  VDR inh: 2%

> S=c1[nH]nc(-c2cccc(Cl)c2)n1Cc1ccccc1
  VDR inh: -8%

> Cc1ccc(-c2cc(-c3ccccc3)[nH]c(=S)c2C#N)cc1
  VDR inh: -6%

> CCOc1cc(N2CCOCC2)c(OCC)cc1NC(=O)c1c(C)noc1C
  VDR inh: 3%

> Nc1nonc1-n1nnc(C(=O)N/N=C/c2ccccc2Cl)c1CN1CCOCC1
  VDR inh: -10%

> Cc1cc(-c2csc(NC(=O)c3ccc(=O)[nH]c3)n2)c(C)n1Cc1ccco1
  VDR inh: 23%

> COc1cccc(C2C(C(=O)c3cc4ccccc4o3)=C(O)C(=O)N2c2cc(C)on2)c1OC (stereo unspecified)
  VDR inh: -5%

> COc1ccccc1-c1nc(=S)c(C(C)=O)c(C)[nH]1
  VDR inh: -8%

> CCc1c2c(nc3ccc(O)cc13)-c1cc3c(c(=O)n1C2)COC(=O)[C@]3(O)CC
  VDR inh: -9%

> CC(=O)N1CCN(c2nc(-c3ccco3)c3c(c2C#N)CC(C)(C)SC3)CC1
  VDR inh: -9%

> COC(=O)c1ccc(N=Nc2ccccc2)cc1
  VDR inh: 5%

> Cc1ccc(Nc2nc(CSc3nnc(-c4ccccc4)n3C)cs2)cc1
  VDR inh: -19%

> Cn1c(=O)n(CCOc2ccc([N+](=O)[O-])cc2)c2ccccc21
  VDR inh: -15%

> COc1ccccc1C(=O)NC(CCSC)C(=O)OCC(=O)c1ccc[nH]1 (stereo unspecified)
  VDR inh: 1%

> COc1ccc(CNC(=O)C2CCN(C(=O)N3CCOc4ccc(Cl)cc43)CC2)cc1
  VDR inh: 9%

> O=C1C2CC=CCC2C(=O)N1CNc1ccccc1 (stereo unspecified)
  VDR inh: -6%

> CN(Cc1nc(-c2cccs2)no1)CC1(N2CCOCC2)CCCCC1
  VDR inh: -18%

> CCN(CC)CCN1C(=O)C(=O)/C(=C(/O)c2ccc(OC)cc2)C1c1ccco1 (stereo unspecified)
  VDR inh: -17%

> O=C(CCc1nc2ccccc2c(=O)[nH]1)OCc1ccc(-c2ccccc2)cc1
  VDR inh: -11%

> COC(=O)CC1=C(C)C(=O)CC2C(C)(C)CCCC12C (stereo unspecified)
  VDR inh: 4%

> O=C(O)CC1=C(O)C(=O)N(c2ccccc2)C1c1ccccc1 (stereo unspecified)
  VDR inh: 4%

> CCOC(=O)c1c(C)n(-c2ccc(F)cc2)c2ccc(O)cc12
  VDR inh: 0%

> Cc1noc(C)c1COc1ccc(C(=O)NCc2cccs2)cc1
  VDR inh: 6%

> CC1CCCC(NC(=O)COC(=O)CSc2ccc3ccccc3c2)C1C (stereo unspecified)
  VDR inh: -7%

> OCCCc1ccccc1
  VDR inh: 14%

> Cc1ccc(NC(=S)NCCN(C2CCCCC2)C2CCCC2)cc1C
  VDR inh: 13%

> CCOc1ccc2c(=O)c(Oc3ccccc3OCC)coc2c1
  VDR inh: 12%

> NS(=O)(=O)c1ccc(N/N=C/c2cn(-c3ccccc3)nc2-c2cccs2)cc1
  VDR inh: -12%

> COc1ccccc1NC(=O)CCN1C(=O)C2CC=C(Cl)CC2C1=O (stereo unspecified)
  VDR inh: 3%

> O=C1CN(S(=O)(=O)c2cc(Cl)ccc2Cl)c2ccccc2N1
  VDR inh: -11%

> O=S(=O)(Nc1ccc(F)cc1)N1CCCCCC1
  VDR inh: 13%

> CC(=O)Nc1ccc(S(=O)(=O)NCCNc2ccccc2[N+](=O)[O-])cc1
  VDR inh: 4%

> COc1cc2cc(C)nc(Cc3cccc4ccccc34)c2cc1OC
  VDR inh: -13%

> O=C(CO/N=C\c1ccccc1)Nc1ccccc1C(=O)N1CCOCC1
  VDR inh: 3%

> COc1ccc(NC(=S)N2CCN(C(c3ccccc3)c3ccccc3)CC2)cc1OC
  VDR inh: 7%

> Cc1cccc(NC2=NC(=S)N(c3cccc(C(=O)O)c3)C23CCCCC3)c1
  VDR inh: -1%

> COc1cc(=O)n(C)c2c(OCC(O)C(C)(C)O)cccc12 (stereo unspecified)
  VDR inh: -7%

> COc1ccc(C(=O)N2CCC[C@@]3(CCN(Cc4ccncc4)C3)C2)cc1
  VDR inh: ?

> Cc1ccc(NC2=C(N3CCOCC3)C(=O)c3ccccc3C2=O)cc1
  VDR inh: ?

> Cc1nn(Cc2cccc(C(=O)NC34CC5CC(CC(C5)C3)C4)c2)c(C)c1Br
  VDR inh: 9%

> Cn1c(=O)c2c(nc(Sc3ncccn3)n2Cc2ccc(Cl)cc2)n(C)c1=O
  VDR inh: -9%

> Cc1nc(N2CCN(S(=O)(=O)c3ccccc3)CC2)c2c3c(sc2n1)CC(C)CC3 (stereo unspecified)
  VDR inh: 4%

> O=C(Nc1ccc2c(c1)OCO2)c1ccc(Br)s1
  VDR inh: 13%

> CC(=O)N1CCCc2cc(S(=O)(=O)Nc3ccccc3C)ccc21
  VDR inh: -11%

> CCc1noc(C)c1C(=O)OCC(=O)NC(C)c1ccccc1 (stereo unspecified)
  VDR inh: -6%

> COc1ccccc1CNc1ncccn1
  VDR inh: -4%

> COc1ccc(C2(NC(C)=O)CCN(C(=O)CCC(=O)O)CC2)cc1
  VDR inh: 3%

> COc1ccc(N(C(C)=O)S(=O)(=O)c2cc(OC)ccc2OC)cc1
  VDR inh: -3%

> CN1CCN(NC(=O)c2ccc(Cl)s2)CC1
  VDR inh: -3%

> CC(C)Cc1nnc(NC(=O)c2cccc(S(=O)(=O)N3CCOCC3)c2)s1
  VDR inh: -9%

> Cc1ccc(-n2c(SCC(=O)Nc3ccc(C(=O)O)cc3)nnc2-c2ccncc2)cc1
  VDR inh: 13%

> NC1=NC(=O)/C(=C/c2ccc(Cl)cc2Cl)S1
  VDR inh: -16%

> O=C(COc1cccc(Cl)c1)Nc1ccc2c(c1)CCC2
  VDR inh: -20%

> COC(=O)c1ccccc1NC(NC(=O)c1ccco1)C(=O)c1ccccc1 (stereo unspecified)
  VDR inh: 4%

> CCN(C(=O)CSc1nnc(-c2cccs2)n1N)c1c(N)n(Cc2ccccc2)c(=O)[nH]c1=O
  VDR inh: 7%

> Cc1ccc(C(=O)NCC(c2ccco2)N2CCc3ccccc32)cc1 (stereo unspecified)
  VDR inh: -12%

> CC1CC(C)CN(c2ncc3c(n2)CC(c2ccc(Cl)cc2)CC3=O)C1 (stereo unspecified)
  VDR inh: 25%

> CC(=O)N(C)c1ccc(NC(=O)c2ccccc2C(=O)O)cc1
  VDR inh: -3%

> CCn1c(=O)c([N+](=O)[O-])c(NCCc2ccc(OC)c(OC)c2)c2ccccc21
  VDR inh: -4%

> CCNC(=S)NNC(=O)c1cc(C)nc2ccccc12
  VDR inh: 9%

> COCCn1c(=O)c(-c2ccc(OC)cc2)nc2cnc(N3CCOCC3)nc21
  VDR inh: 6%

> COc1cc2sc3ccc(-c4ccc(CN5CCOCC5)cc4)cc3c(=O)c2cc1OC
  VDR inh: -10%

> CCOC(=O)c1c(C)[nH]c(C)c1S(=O)(=O)N1CCC(C(=O)Nc2ccccn2)CC1
  VDR inh: 1%

> C=CCNC(=O)CN1CCN(C(c2ccccc2)c2ccccc2)CC1
  VDR inh: 3%

> Cc1cc(C)cc(NC(=O)C2CCN(c3cnccn3)CC2)c1
  VDR inh: -11%

> CS(=O)(=O)N(CC(=O)Nc1ccccc1F)C1CCCCC1
  VDR inh: -16%

> COc1ccc(CN2CCNC(=O)C2CC(=O)NCCCC2CCCC2)c(C)c1C (stereo unspecified)
  VDR inh: ?

> CC(=O)Nc1cccc(OCc2cccc([N+](=O)[O-])c2)c1
  VDR inh: -11%

A portion from the list above, for reference:
> CC(=O)N1CCCc2cc(S(=O)(=O)Nc3ccccc3C)ccc21
  VDR inh: -11%

> CCc1noc(C)c1C(=O)OCC(=O)NC(C)c1ccccc1 (stereo unspecified)
  VDR inh: -6%

> COc1ccccc1CNc1ncccn1
  VDR inh: -4%

> COc1ccc(C2(NC(C)=O)CCN(C(=O)CCC(=O)O)CC2)cc1
  VDR inh: 3%

> COc1ccc(N(C(C)=O)S(=O)(=O)c2cc(OC)ccc2OC)cc1
  VDR inh: -3%

> CN1CCN(NC(=O)c2ccc(Cl)s2)CC1
  VDR inh: -3%

> CC(C)Cc1nnc(NC(=O)c2cccc(S(=O)(=O)N3CCOCC3)c2)s1
  VDR inh: -9%

Continued:
> CC(C)CNC(=O)c1ccccc1NC(=O)CCSc1ccccc1
  VDR inh: -4%

> COC(=O)C1=C(N)Oc2cc(C)[nH]c(=O)c2C1c1ccccc1OC (stereo unspecified)
  VDR inh: 26%

> Cc1cccc(OCCSc2ncnc3nc[nH]c23)c1
  VDR inh: -4%

> CCCNCCC(c1ccco1)c1ccccc1OC (stereo unspecified)
  VDR inh: 7%

> COc1cccc(C2C=C(c3ccc(C)c(C)c3)Nc3nnnn32)c1OC (stereo unspecified)
  VDR inh: 12%

> CCN1CCN(CCOc2ccccc2-c2ccccc2)CC1
  VDR inh: 7%

> Cc1cc(C(F)(F)F)nc(SCCN2CCOCC2)c1C#N
  VDR inh: -4%

> CCc1c(C)sc2c1CCN(C(=O)Nc1cc(Cl)c(OC)cc1OC)C2c1ccccc1 (stereo unspecified)
  VDR inh: -4%

> CN1CCCC(OC(=O)c2ccccc2Br)C1 (stereo unspecified)
  VDR inh: -1%

> CCN(CC(=O)Nc1cc(S(=O)(=O)N2CCCCC2)ccc1Cl)Cc1ccccc1
  VDR inh: -7%

> COc1ccc(-c2sc3ccc(OC)cc3c2-c2ccc(OC)nc2)cc1
  VDR inh: -21%

> O=C(CSc1nnc(COc2ccccc2)n1Cc1ccco1)NCc1ccco1
  VDR inh: -14%

> CCCN(CC1CCCO1)C(=O)c1cc(COc2ccc(F)cc2F)on1 (stereo unspecified)
  VDR inh: 4%

> COc1ccc(/C(N)=N/OC(=O)c2cc(-c3ccccc3)nc3ccccc23)cc1
  VDR inh: 5%

> Cc1cc(C)c(NC(=O)CSc2ncc3c(n2)-c2cc(Cl)ccc2N(C)S3(=O)=O)c(C)c1
  VDR inh: 9%

> Cc1ccc(NC2=C(C(=O)c3ccccc3)N(C)S(=O)(=O)c3ccccc32)cc1
  VDR inh: 25%

> CCC(=O)c1ccc(OCC(=O)N2CCN(C(=O)c3ccccc3)CC2)cc1
  VDR inh: -4%

> Cc1cc(N)n(-c2ccc([N+](=O)[O-])cc2)n1
  VDR inh: 2%

> COc1ccc(-c2nnc(SC(C(=O)c3c[nH]c4ccccc34)c3ccccc3)n2N)cc1OC (stereo unspecified)
  VDR inh: -5%

> O=C(COC(=O)/C=C/c1cccc(Cl)c1)NC1CCCC1
  VDR inh: -16%

Some of the compounds tested; the hit share may differ from the screen's.
